# High-throughput results as filed in PubChem.
# Anaer choline gr: inhibitors of anaerobic choline-dependent gram-negative bacterial growth. Gram-negative bacterium anaerobic choline minimal medium, absorbance growth; hits give low values; many inactives read as strong as hits in the columns shown. calls only. 0.2% of 55,000 active;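 active = growth z-score on choline under -2 at 7 or 20 h with little or no fall on glycerol, limits in tiers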;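 note: stock transfer was 300 nL into about 50 µL; the organism is E. coli; final concentration not given here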
# Anaer choline gr early: further read-out of Anaer choline gr, marked with its call; z-score; measured here: choline growth z-score, timepoint 1;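 score of optical density at 7 h as mean of two plates; lower means less growth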
# * hit, by the source's call; i = inactive; + = active, no number; & = joins results of further samples. Only part of the results is shown; count on the stated rates, not on these rows.
Anaer choline gr	Anaer choline gr early	SMILES
i	0.15	CCCN1CCN(c2cc(C(=O)O)c3cc(NS(=O)(=O)c4cc(C)cc(C)c4)ccc3n2)CC1
i	-0.47	CCCSc1nnc2c(n1)OC(c1cccc(Br)c1)Nc1ccccc1-2 (stereo unspecified)
i	0.76	Cc1nnc(-c2coc(S(=O)(=O)N3CCC(C)CC3)c2)o1
i	0.18	CC1(C(=O)NC2CCCCC2)Cc2ccccc2C(=O)N1Cc1ccc(F)cc1 (stereo unspecified)
i	1.2	O=S(=O)(c1ccc(F)cc1F)N1CCn2cccc2C1c1ccccc1F (stereo unspecified)
i	-0.83	CC(CN(C)C)CN1c2ccccc2Sc2ccccc21 (stereo unspecified)
i	1.3	CN1c2cc(Cl)ccc2-c2nc(SCC(=O)Nc3nccs3)ncc2S1(=O)=O
i	-0.34	CC1c2[nH]c3ccccc3c2CCN1C(=O)Nc1ccccc1 (stereo unspecified)
i	-0.95	COCc1nnc(-c2cccs2)o1
i	0.89	COc1cc2ncnc(Nc3ccc(O)c(Br)c3)c2cc1OC
i	-0.3	Cc1cc(C2CCCN2C(=O)c2nn(C)cc2Cl)no1 (stereo unspecified)
i	-0.12	CCOC(=O)C1CCN(C(=O)c2oc3ccc(S(=O)(=O)N4CC(C)CC(C)C4)cc3c2C)CC1 (stereo unspecified)
i	0.84	CCOc1cc(CN2CCCC2c2cc(C)on2)ccc1OC(C)C (stereo unspecified)
i	1.3	COc1cccc(NC(=O)C2CC(=O)N(c3cccc(-c4noc(C)n4)c3)C2)c1 (stereo unspecified)
i	0.29&0.17&0.47&0.47&0.51	Cn1nnc2c(C(N)=O)ncn2c1=O
i	-0.63	O=C1COc2cc(S(=O)(=O)N3CCC(C(=O)N4CCOCC4)CC3)c(Cl)cc2N1
i	-0.94	CCc1ccc(NC(=O)Cn2c(=O)n(Cc3nc(C)no3)c(=O)c3cc4c(cc32)OCO4)cc1
i	-1.5	COc1ccc(OCC(O)Cn2c(C3CC(=O)N(C(C)(C)C)C3)nc3ccccc32)cc1 (stereo unspecified)
i	1.1	CCOc1ccc(NC(=O)CCS(=O)(=O)c2cc3c(cc2C)NC(=O)CO3)cc1
i	-1.7	COc1ccc(-c2nnc(SCC(=O)N3CCC(C)CC3)o2)cc1
i	0.05	C=CCNC(=O)Nc1c[nH]c2c(C)cccc2c1=O
i	1.7	Cc1ccccc1Cc1c(C)nc2c(C(=O)NCc3ccc4c(c3)OCO4)cnn2c1C
i	1.6	C=CCn1nnc(NCc2ccc(-c3ccc(C)c(Cl)c3)o2)n1
i	-2.8	C=Cc1ccc(Cn2nc3c(S(=O)(=O)N4CCOCC4)cccn3c2=O)cc1
i	0.45	O=C(NCc1cc(=O)n2nc(-c3ccccc3)sc2n1)Nc1cccc(Cl)c1
i	0.29	COCCCNC(=O)C1CCCN(c2cc(=O)n(C)c(=O)n2C)C1 (stereo unspecified)
i	-0.65	O=C(CSc1nn2c(=O)c(Cc3ccccc3)nnc2s1)Nc1ccccc1Cl
i	0.38	CCc1ccc(Nc2nncc(=O)[nH]2)cc1
i	0.09	Cc1nc2ncnn2c(C)c1CCC(=O)NC1CCCCC1
i	0.6	O=c1c(S(=O)(=O)c2ccccc2)c[nH]c2ccncc12

# In the list so far, 4 have an NH in an aromatic ring.
Anaer choline gr	Anaer choline gr early	SMILES
i	-0.34	CC1c2[nH]c3ccccc3c2CCN1C(=O)Nc1ccccc1 (stereo unspecified)
i	0.05	C=CCNC(=O)Nc1c[nH]c2c(C)cccc2c1=O
i	0.38	CCc1ccc(Nc2nncc(=O)[nH]2)cc1
i	0.6	O=c1c(S(=O)(=O)c2ccccc2)c[nH]c2ccncc12

# (listing goes on)
Anaer choline gr	Anaer choline gr early	SMILES
i	-0.63	NC(=O)CSc1ncnc2nc(N3CCSCC3)sc12
i	0.68	Cc1c(CC(=O)Nc2ccc(F)cc2)c2c(=O)n(C)c(=O)n(C)c2n1C
i	0.62	Cc1[nH]c2ccc(C(=O)N3CCOCC3)cc2c1C
i	0.11	Cc1cc(NC(C)C)n2nc(-c3ccc(Cl)cc3)c(C)c2n1
i	0.25	Cc1nnc(-c2ccc(S(=O)(=O)N3CCC(C)CC3)o2)o1
i	0.35	c1ccc(-n2ccnc2SCc2nc(-c3ccc4c(c3)OCO4)no2)cc1
i	1.1	CCCCC[C@H](O)/C=C/[C@H]1CCC(=O)[C@@H]1C/C=C\CCCC(=O)O
i	0	O=C(C1CCN(c2nc(-c3ccc(Cl)cc3)no2)CC1)N1CCC(N2CCCCC2)CC1
i	0.15	O=C(CCCc1c[nH]c2ccccc12)Nc1cnc2ccccc2c1
i	0.84	O=c1cc(CN(CCO)Cc2ccccc2)nc2nc(-c3ccc(Cl)cc3)[nH]n12
i	-1.4	CC(C)S(=O)(=O)c1ccc(N2CCN(Cc3ccc4c(c3)OCO4)CC2)nn1
i	-1.1	Cc1csc2nc(COC(=O)CNC(=O)c3ccccc3)cc(=O)n12
i	0.23	COc1cccc(-c2cc3n(n2)CCCN(S(=O)(=O)c2c(C)nn(C)c2C)C3)c1
i	0.13	CCOc1c(C(=O)OC)sc2ccc(NC(=O)NCc3cccc(OC)c3)cc12
i	0.42	O=C(NCCC1=CCCCC1)C1CCN(c2nnc(N3CCOCC3)c3ccccc23)CC1
i	-0.85	c1ccc(CCc2nn3c(CSc4ccccc4)nnc3s2)cc1
i	0.6	COc1ccc(-c2ocnc2C(=O)NCc2cc(OC)ccc2OC)cc1
i	-0.1	COc1ccc(C2Sc3ccccc3NC3=C2C(=O)c2ccccc23)c(OC)c1 (stereo unspecified)
i	1.9	CC(C)n1cnc2nc(CSc3ccccc3NC(=O)COc3ccc(Cl)cc3)cc(=O)n21
i	-2.7	COc1ccc(Br)cc1CN1CCCC1c1c(C)noc1C (stereo unspecified)
i	-0.31	Cn1c2c(c3cc(Oc4ccccc4)ccc31)CCCC2=O
i	-0.96	CCOC(=O)c1c(NC(=O)c2c(F)cccc2F)sc2c1CCN(C)C2
i	1.4	O=C(Nc1ccccc1)Nc1ccc(Cn2cnc(-c3nc(-c4ccc(F)cc4)no3)c2)cc1
i	0.35	O=C(NCc1ccccc1)c1c(O)c2ccccc2[nH]c1=O
i	0.25	Cc1ccc(NS(=O)(=O)c2c(C)sc(C)c2-c2cc(C(F)(F)F)on2)c(C)c1
i	0.97	CC(C)CNC(=O)C1CC(=O)N(c2ccc3c(c2)CCN3C(=O)C2CC2)C1 (stereo unspecified)
i	0.37	COc1ccc2[nH]cc(CCNC(=O)CCc3nnc(C(=O)Nc4ccccc4)s3)c2c1
i	-0.2	CC(C)CC(=O)Nc1ccc2c(c1)nc(CCNC(=O)C1CC1)n2C
i	-0.72	COC(=O)CC1Nc2ccccc2NC1=O (stereo unspecified)
i	-0.22	Cc1nc2ncnn2c(Sc2ccc(NS(=O)(=O)c3ccc(Cl)cc3)cc2)c1C

# Four of these compounds in a different format:
CCCCC[C@H](O)/C=C/[C@H]1CCC(=O)[C@@H]1C/C=C\CCCC(=O)O
  Anaer choline gr: i
  Anaer choline gr early: 1.1
O=C(C1CCN(c2nc(-c3ccc(Cl)cc3)no2)CC1)N1CCC(N2CCCCC2)CC1
  Anaer choline gr: i
  Anaer choline gr early: 0
O=C(CCCc1c[nH]c2ccccc12)Nc1cnc2ccccc2c1
  Anaer choline gr: i
  Anaer choline gr early: 0.15
O=c1cc(CN(CCO)Cc2ccccc2)nc2nc(-c3ccc(Cl)cc3)[nH]n12
  Anaer choline gr: i
  Anaer choline gr early: 0.84

# (listing goes on)
Anaer choline gr	Anaer choline gr early	SMILES
i	-1.3	Cn1c(CNS(=O)(=O)c2ccc3c(c2)CCCC3)nc2cccnc21
i	-0.86	Cc1ccc2oc(-c3cc(NC(=O)c4ccc5c(c4)OCCO5)cc(C)c3O)nc2c1
i	0.01	O=c1c(CN2CCOCC2)c[nH]c2ccccc12
i	-0.2	Cc1cc2nc(CSc3nnc(NC(=O)c4ccc(C)c(F)c4)s3)cc(=O)n2o1
i	-0.82	Cc1cc(F)ccc1-n1nnc(C(=O)O)c1C
i	-0.2	CC(Oc1ccccc1)C(=O)N[C@@H]1C(=O)N2[C@@H]1SC(C)(C)[C@@H]2C(=O)O (stereo partly specified)
i	0.71	COc1ccc(CC(=O)N2CCc3cc(-c4noc(C)n4)ccc32)cc1OC
i	0.08	O=C(NCc1ccccn1)C1CCCN(c2ncnc3c2oc2ccccc23)C1 (stereo unspecified)
i	0.24	CC(C)CC(=O)Nc1ccc(S(=O)(=O)NCCn2c(C(F)(F)F)nc3ccccc32)cc1
+	0.04*	CCN1CCc2nc(NC(=O)c3ccc(S(=O)(=O)N4CCc5ccccc5C4)cc3)sc2C1
i	0.25	COc1cc(OC)cc(C(=O)N2CC(OCc3ccc(Cl)cc3)C2)c1
i	0.19	CCOc1ccc(-c2nnc(SCC(=O)Nc3nnc(C)s3)o2)cc1
i	-1.6	O=C(CSc1nc2ncccc2[nH]1)NCCc1ccccc1
i	0.5	O=S(=O)(Nc1cnn(-c2ncc(N3CCSCC3)cn2)c1)c1ccc2c(c1)CCC2
i	0.83	COc1ccc(C2=C(C)C(=O)N(CC(=O)NCc3ccc(OC(C)C)cc3)S2(=O)=O)cc1
i	-0.13	CNC(=O)c1cc(NS(=O)(=O)c2ccc3c(c2)CCCC3)cnc1N1CCNCC1
i	-0.8	CCN(CC)S(=O)(=O)c1ccc2c(c1)cc(C(=O)NCCc1ccc(S(N)(=O)=O)cc1)n2C
i	0.06	COc1ccc(-n2nnc3c(N4CCN(S(=O)(=O)c5ccc(F)cc5F)CC4)ncnc32)cc1
i	0.19	O=C(Cc1csc(NC(=O)Nc2ccccc2)n1)Nc1ccccc1F
i	0.04	COc1ccc(CNC(=O)C2CCN(c3ccc4nnc(C)n4n3)CC2)cc1
i	0.25	O=C(c1cc(-c2ccncc2)n[nH]1)N1CCCC(C(=O)N2CCN(c3ccc(F)cc3)CC2)C1 (stereo unspecified)
i	1.5	Cc1nc(-c2cc(S(=O)(=O)NC3CCCCCC3)c(C)s2)sc1C
i	-0.41	CCC(=O)c1cn(CC(=O)NC(CC)c2ccc3c(c2)OCCCO3)c2ccccc12 (stereo unspecified)
i	-0.07	Cc1csc(NC(=O)c2cc(-c3ccncc3)n(-c3ccc(F)cc3)n2)n1
i	-0.57	CC(C)NC(=O)N1CCCCCC1c1cccs1 (stereo unspecified)
i	-2.6&-3.6	CCn1nc(C(=O)O)c(=O)c2cc3c(cc21)OCO3
i	-0.32	O=C(CN1C(=O)CSc2ccc(C(=O)N3CCCC3)cc21)N1CCN(c2ncccn2)CC1
i	0.84	CCCn1c(=O)c2cc(F)ccc2n2c(=S)[nH]nc12
i	-0.52	COc1ccc(-c2cc3n(n2)CCC(=O)N3CC(=O)NCC2CCCO2)cc1 (stereo unspecified)
i	-4.9	Nc1nc(N2CCCC2)nc2ccccc12
i	-2	CNC(=O)c1c(NC(=O)c2ccc(S(=O)(=O)N3CCCCC3)cc2)sc2c1CCC2
i	-1.5	Cc1ccc(OCCn2c(SCC(O)COc3ccccc3)nc3c(N)ncnc32)cc1 (stereo unspecified)
i	0.64	O=c1n(Cc2cccc(Cl)c2)nc2c(S(=O)(=O)N3CCc4ccccc4C3)cccn12
i	-0.11	O=S(=O)(c1ccc(-c2nnc(C3CC3)o2)o1)N1CCOCC1
i	0.76	Cc1ccc2[nH]c(C)c(C(O)CN3CCN(c4ccccc4)CC3)c2c1 (stereo unspecified)
i	-2.7	Cc1nc2c(n1C)CN(C(=O)c1ccc(Cl)s1)CC2
i	1	CCCc1nc(-n2cccc2)sc1C(=O)NCc1ccc(C)cc1
i	-0.23	Cc1csc2ncc(C(=O)NC(C)C)c(=O)n12
i	0.55	CCOc1ccc(-c2nonc2NC(=O)COc2ccc(C(C)(C)C)cc2)cc1C
i	0.01	CCN1CCN(C2(CNC(=O)C(C)C)CCCCC2)CC1
i	0.76	CCn1c(=O)c(N2CCC(C(=O)Nc3ccc(C)c(F)c3)CC2)c(C)n(-c2ccccc2)c1=O
i	-2.4	CCn1c(=O)oc2cc(NC(C)=O)ccc21
i	0.23	Cc1cccc(NC(=O)N2CCN(c3nc(C)cc(Nc4ccccc4)n3)CC2)c1
i	-0.04	C=CCNC(=O)c1ccc2c(c1)CCCN2S(C)(=O)=O
i	0.15	Cc1nc2c(-c3ccc(F)cc3)c(C)nn2c(C)c1CCC(=O)N1CCC(Cc2ccccc2)CC1
i	0.8	CC(Nc1ncccc1-c1nc(-c2ccccc2)no1)c1ccccc1 (stereo unspecified)
i	-1.5	CC(=O)Nc1c2n(c3ccc(F)cc13)CC(C)(C(=O)NC1CCCC1)N(C1CCCC1)C2=O (stereo unspecified)
i	0.89	COC(=O)c1ccc(C2C(S(=O)(=O)c3ccccc3)=C(O)C(=O)N2c2cccc(Cl)c2)cc1 (stereo unspecified)
i	0.62	O=C1CCCc2[nH]c(=O)c(C(=O)Nc3cccc(F)c3)cc21
i	0.45	CC(C)(C)Nc1c(-c2ccc(C#N)cc2)nc2sc3ccccc3n12
i	-0.85	COc1cccc(OCc2nn3c(-c4ccc5ccccc5n4)nnc3s2)c1
i	-0.22	CCc1c(C)nc2nc(-c3ccccc3)nn2c1NCCc1ccccc1
i	-0.01	O=c1c(S(=O)(=O)c2cc(F)cc(F)c2)c[nH]c2c(F)c(Cl)ccc12
i	-0.67	CC(C)Cn1c(=O)c2cc(Cl)ccc2n2c(SCc3ccc(Cl)cc3)nnc12
i	-0.91	Cc1ccccc1Cn1ccc(NC(=O)C2=CC(c3ccc(F)cc3)=NS(=O)(=O)N2C)n1
i	-0.49	CC1CCN(S(=O)(=O)c2ccccc2-c2nc(-c3ccccc3)no2)CC1
i	-2.5	CCCCC[C@H](O)/C=C/[C@@H]1[C@H]2C/C(=C\CCCC(=O)O)C[C@H]2C[C@H]1O
